NPYLR7 agonist: mosquito NPYLR7 agonism | HEK293T NPYLR7/Galpha15, GCaMP6s calcium fluorescence | activation, % at 10 µM | 0.15% of 270,000 active; in the data active = activation above about 40%;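 note: 0% = vehicle and 100% = reference agonist at the receptor; some compounds past the cut are filed as inactive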
NPYLR7 agonist max-min: further read-out of NPYLR7 agonist, marked with its call; activation, %; measured here: Max-Min RFU normalised activation; some inactives read as strong as hits;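 span of the calcium signal over five minutes; 0% = vehicle and 100% = native peptide agonist; compound fluorescence can raise it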
* marks the source's active call; other numbers are inactive results. This is a subset; the hit share may differ from the screen's.

SMILES | NPYLR7 agonist | NPYLR7 agonist max-min
C=CCOC(CN1CCN(C(=O)c2cc(C)on2)CC1)c1cccc(OC)c1 (stereo not drawn) | -3 | 4
Cc1nccn1-c1ccc(C(F)(F)F)cc1NC(=O)Nc1ccc(Cl)cc1 | 7 | 5
CSc1ccccc1NC(=O)CCSc1nnnn1C1CCCC1 | 2 | 0
Cn1c(SCC(=O)N2CCOCC2)nnc1-c1ccc(F)cc1 | 8 | 0
COc1cc(S(=O)(=O)N2CCN(c3cccc(C)c3C)CC2)c(C)cc1C | -2 | -3
COC(=O)c1ccc(NC(=O)Cn2ncn3nc(-c4ccccc4)cc3c2=O)cc1 | -10 | -19
CCOCCCn1ccnc1-c1cccnc1 | 8 | 21
CNc1nc(N2CC[C@@H](c3ccc4c(c3)OCO4)[C@H](O)C2)nc2c1CCC2 | 4 | -13
CC(C)n1cnnc1CN(C)C(=O)CCc1nc(-c2ccccc2F)no1 | 2 | -4
Cc1c(CN(C)C)c2c(n1C)C(=O)c1ccc(Br)cc1-2 | 1 | -1
CC(=O)NC(C)c1cc2c(cc1Br)OCCO2 (stereo not drawn) | -1 | -5
CCCC(O)(CCC)c1ccc(CN(Cc2ccc(OC)c(OC)c2)CC(C)C)o1 | -9 | -7
CC(C)C(C)(C)c1cc2c(=O)c(-c3ccccc3)coc2cc1OCc1ccccc1 | -12 | -13
COc1cccc(CCn2ccnc2C2CCOC(C)(C)C2)c1 (stereo not drawn) | -1 | 17
COc1cc2c(cc1CNCCNC(=O)c1ccc(C)c(F)c1)OC(C)C2 (stereo not drawn) | -1 | -2
CCOC(=O)c1cc(-c2cccc(OC)c2)n(-c2ccc(C(=O)NC3CCCc4ccccc43)cc2)n1 (stereo not drawn) | -1 | -6
CNC(=O)NC(=O)C(C)Sc1nnnn1-c1ccccc1 (stereo not drawn) | -2 | -6
CCNC(=O)N(CCCOC)CC(=O)N(CCc1ccc(OC)c(OC)c1)Cc1ccc(C)o1 | 0 | 4
Cc1ccccc1CN(C)C(C)c1nc2scc(-c3ccco3)c2c(=O)[nH]1 (stereo not drawn) | 0 | 9
CC(=O)N1CCOC(CNC(=O)CCc2cccnc2)C1 (stereo not drawn) | 6 | 3
Cc1noc(-c2cccnc2)c1C(=O)NCCCN1CCOCC1 | 17 | 18
C=CCn1c(=O)c2c(nc(-c3ccc(S(=O)(=O)O)cc3)n2C)n(C)c1=O | 1 | 1
O=C(CCc1nc(-c2ccco2)no1)NC1C2CC3CC(C2)CC1C3 (stereo not drawn) | 2 | 3
CCOC(=O)c1cc(-c2cccc(NC(=O)[C@@H]3C[C@H]3c3ccccc3)c2)n(-c2ccccc2OC)n1 | 16 | 9
COCCCN(CC(=O)N1CCc2sccc2C1c1ccc(OC)cc1)S(=O)(=O)c1ccc(F)cc1 (stereo not drawn) | -3 | -1
O=c1[nH]c(COCC(F)(F)F)nc2ccc(-c3cccc(C(F)(F)F)c3)cc12 | 4 | 2
CC(=O)Nc1cc(C(=O)N(C)Cc2nc3c(s2)CCCC3)c2c(c1)nc(C)n2Cc1ccccc1 | 19 | 7
COc1ccccc1/C=C/C=N\NC(=O)CSc1nnc(-c2ccccc2)n1-c1ccccc1 | -5 | -13
COc1ccc(NC(=O)N2CCC(CCc3ccc(-c4ccccc4)cc3)CC2)cc1 | 1 | 11
Cc1ccc(CN(C)CCC(C)(C)O)c(C)c1F | 4 | 0
CCc1nc(C)sc1CNc1nc(-c2cccnc2)nc2c1cnn2C | -4 | -4
COc1cccc(N(C)C(=S)Oc2ccc3c(c2)CCCC3)n1 | -13 | -16
COc1ccc2cc(C(=O)N3CCN(Cc4ccc5c(c4)CCO5)CC3)ccc2c1 | 0 | -2
O=c1c[n+]([O-])c2ccccc2n1OCc1ccccc1 | -5 | -9
CC1COCCN1C(=O)NCC1CCCN(C)C1c1cccs1 (stereo not drawn) | 12 | 8
CCOc1ccccc1N1CCN(C(=O)c2csc(CSc3nnc(-c4cccnc4)n3-c3cccc(C(F)(F)F)c3)n2)CC1 | 14 | 20
Cc1nn(-c2ccc(C(F)(F)F)cc2)c(C)c1CCC(=O)NCc1ccccn1 | 15 | 8
CN1Cc2ccccc2CC1C(=O)NCc1ccc2c(c1)n(C)c(=O)n2C (stereo not drawn) | 21 | 14
Cc1ccccc1-n1c(Cc2ccccc2)nnc1SCCCCC(=O)N1CCN(C/C=C/c2ccccc2)CC1 | 16 | 26
O=C(CCn1cnnn1)NCc1cnn2ccccc12 | -4 | -6
CCOC(=O)C1CCN(C(=O)C(C)Nc2ccc3c4c(cccc24)CC3)CC1 (stereo not drawn) | 1 | 0
COc1ccc(/C=C2\C=C(c3ccccc3)N(c3ccc(Cl)c(C(=O)O)c3)C2=O)cc1 | 8 | 15
Cc1nc2c(s1)CN(C(=O)CN)CC2 | -6 | -8
C[C@@H]1CN(CC(=O)N2CCC3(CCC(=O)N(C)CC3)CC2)C[C@H](C)O1 | 2 | 2
Cc1ccc2nc(SC(C)C(=O)NC3CC3)[nH]c2c1 (stereo not drawn) | 10 | 1
CN(C)CCn1c(-c2ccccc2)cc(=S)c2c1CCCC2 | -2 | -7
Clc1cc(Cl)c(N=Cc2ccncc2)cc1Cl | -7 | -9
CC1(C(=O)Nc2cccc3c2CCCC3)CCN1C(=O)Cc1ccc(Cl)cc1Cl (stereo not drawn) | 9 | 7
CSc1nccc(N2CCC3(CCCN(Cc4ccc(F)cc4)C3)C2)n1 (stereo not drawn) | 21 | 4
COC(=O)c1ccc(CSc2nnc(-c3cc(-c4ccccc4)nc4ccccc34)n2CC2CCCO2)cc1 (stereo not drawn) | 0 | 5
Continued.
SMILES | NPYLR7 agonist | NPYLR7 agonist max-min
CCOC(=O)C1(CCCc2ccccc2)CCN(C(=O)C[C@@H]2C[C@@H](C)NC(=S)N2)CC1 | -11 | -15
CCCC(=O)OCC(O)CN(CCc1nc(-c2ccc(C)c(Cl)c2)no1)Cc1ccccc1 (stereo not drawn) | -8 | -3
CCN(C(=O)Cc1c(C)nn(C(F)F)c1C)C1CCCCC1C (stereo not drawn) | -3 | -6
Cc1ccc(C(=O)C(C#N)=Cc2ccc3c(c2)OCO3)cc1 | 1 | 0
O=C(NCC1CCCO1)[C@@]1(OCc2cccc(C(F)(F)F)c2)CC(OCc2cccc(Cl)c2)[C@H](O)[C@H](O)C1 (stereo partly drawn) | 2 | 4
CCCCN1C(=O)C(=Cc2cccnc2)SC1=Nc1ccc(OC)cc1 | -2 | -6
Cc1cccc2cc(/C=N\NC(=O)CN3CCCCC3)c(Cl)nc12 | -2 | -5
COc1ccc(-c2[nH]ncc2-c2nc3c([nH]2)c(C)nn3C(C)C2CC2)cc1 (stereo not drawn) | -6 | -10
CCOC(=O)CCC(=O)N1CCN(c2cc(Oc3ccc(F)cc3C)ncn2)CC1C (stereo not drawn) | 7 | 9
O=C(Nc1cccc(-c2ccc3nnc(-c4ccncc4)n3n2)c1)c1ccccc1 | -12 | -4
CSc1nc2c(sc(=S)n2-c2ccccc2)c(=O)[nH]1 | 5 | 3
Cn1c(=O)c2c(ncn2CCCC#N)n(C)c1=O | 2 | -2
CN(CC1COc2ccccc2O1)c1ccc(-c2nc(C3CC3)no2)cn1 (stereo not drawn) | 8 | 7
CCCn1cnc(NC(=O)c2cccc(CN3CCCC(O)C3)c2)n1 (stereo not drawn) | -9 | -11
Cc1ccc(N2C(=O)/C(=C/c3ccc([N+](=O)[O-])cc3)C=C2c2ccccc2)c(Br)c1 | -1 | 6
Cc1occc1C(=O)NNC(=O)N(C)C(C1CC1)C1CC1 | 4 | 2
COC(=O)NC1CCN(c2ccccc2C(=O)NCc2ccccc2F)CC1 | 15 | 12
CCN(CC1CCCN(CCc2cccc(F)c2)C1)C(=O)c1cnccn1 (stereo not drawn) | 5 | 1
COc1cccc(CSC(C)C(C)O)c1 (stereo not drawn) | 19 | 9
Cc1ccn(-c2ccc(N3CCN(S(=O)(=O)c4ccc(C(C)(C)C)cc4)CC3)nn2)n1 | -6 | -10

Among those listed so far, these have an aryl thioether with sulfur outside any ring:
SMILES | NPYLR7 agonist | NPYLR7 agonist max-min
CSc1ccccc1NC(=O)CCSc1nnnn1C1CCCC1 | 2 | 0
Cn1c(SCC(=O)N2CCOCC2)nnc1-c1ccc(F)cc1 | 8 | 0
CNC(=O)NC(=O)C(C)Sc1nnnn1-c1ccccc1 (stereo not drawn) | -2 | -6
COc1ccccc1/C=C/C=N\NC(=O)CSc1nnc(-c2ccccc2)n1-c1ccccc1 | -5 | -13
CCOc1ccccc1N1CCN(C(=O)c2csc(CSc3nnc(-c4cccnc4)n3-c3cccc(C(F)(F)F)c3)n2)CC1 | 14 | 20
Cc1ccccc1-n1c(Cc2ccccc2)nnc1SCCCCC(=O)N1CCN(C/C=C/c2ccccc2)CC1 | 16 | 26
Cc1ccc2nc(SC(C)C(=O)NC3CC3)[nH]c2c1 (stereo not drawn) | 10 | 1
CSc1nccc(N2CCC3(CCCN(Cc4ccc(F)cc4)C3)C2)n1 (stereo not drawn) | 21 | 4
COC(=O)c1ccc(CSc2nnc(-c3cc(-c4ccccc4)nc4ccccc34)n2CC2CCCO2)cc1 (stereo not drawn) | 0 | 5
CSc1nc2c(sc(=S)n2-c2ccccc2)c(=O)[nH]1 | 5 | 3

The listing continues.
SMILES | NPYLR7 agonist | NPYLR7 agonist max-min
Cc1cccc(C(=O)Nc2ccc(NC(=O)c3ccco3)cc2C(F)(F)F)n1 | -1 | -2
CC(C)(C)c1ccc(CC(=O)N2CCC2(C)C(=O)NC2CCCC2)cc1 (stereo not drawn) | 8 | 2
CCc1cc2c(SCc3nc(-c4cccs4)no3)ncnc2s1 | -4 | 13
CC(Nc1ncccn1)c1cc2ccccc2o1 (stereo not drawn) | 5 | 3
Cc1ccc(NC(=O)N2CCC3CCCCC3C2)c(Cl)c1 (stereo not drawn) | 9 | 4
Cc1ccnc(NCCNc2nc(C(C)(C)C)nc3c2cnn3C)c1 | -6 | -10
Cc1ccccc1CCC1CCCN(Cc2nnc(-c3ccco3)o2)C1 (stereo not drawn) | -4 | -14
COc1ccc(CNC(=O)c2sc(=O)n(Cc3ccccc3OC)c2C)cc1 | 12 | 5
CC(C)Cc1csc2nc(CC#N)[nH]c(=O)c12 | -3 | -4
CCc1nnc(NC(=O)CN2C(=O)NC3(CCCC3)C2=O)s1 | 10 | 8

Overlap with the part before: 4 entries; new compounds follow.
SMILES | NPYLR7 agonist | NPYLR7 agonist max-min
Cc1ccccc1CCC1CCCN(Cc2nnc(-c3ccco3)o2)C1 (stereo not drawn) | -4 | -14
COc1ccc(CNC(=O)c2sc(=O)n(Cc3ccccc3OC)c2C)cc1 | 12 | 5
CC(C)Cc1csc2nc(CC#N)[nH]c(=O)c12 | -3 | -4
CCc1nnc(NC(=O)CN2C(=O)NC3(CCCC3)C2=O)s1 | 10 | 8
CC(C)N1CCCC(C)(C(=O)Nc2ccc(Cl)c(Cl)c2)C1 (stereo not drawn) | 0 | -1
CCN(CC)CCNc1nc2c(c(=O)n(C)c(=O)n2C)n1Cc1cccc(C)c1 | 14 | 4
CN(C)CCCN(C(=O)C1COc2ccccc2O1)c1nc2cc3c(cc2s1)OCO3 (stereo not drawn) | 0 | -3
O=C(CSc1nc2c(c(=O)n1Cc1ccccc1)SCC2)N1CCN(c2ccccc2)CC1 | 1 | -12
COc1ccccc1S(=O)(=O)N1CCSc2ccncc21 | 6 | 2
CCN(Cc1noc(CC(C)C)n1)C(=O)c1cccc(-n2cccn2)c1 | 17 | 2
O=C(c1ccc2c(c1)OCCO2)N(Cc1cccnc1)c1nc2ccc(F)cc2s1 | -14 | -7
Cc1ccccc1-n1ncc2c(C(C)C)nn(CC(=O)N(C)c3ccccc3)c(=O)c21 | 9 | 5
O=C(CCC1CCN(Cc2ccc3nonc3c2)CC1)N1CCC(Cc2ccccc2)CC1 | 3 | 1
CC1CCC(N(C)C(=O)Cn2cnc(C#N)n2)CC1 (stereo not drawn) | 2 | 3
CCOc1c(Cl)cc(/C=C/C(=O)NCc2cccc(OC)c2)cc1OC | 3 | 0
COC(=O)NC(CC(C)C)C(=O)Nc1ccc(SC)c(F)c1 (stereo not drawn) | 1 | -1
O=C(N1CCOCC1)N1CCN(Cc2ccc(-n3cccn3)cc2)CC1 | 3 | 0
CN1CCCC1CCNC(=O)c1ccc(-c2cc(-c3cccc(C(F)(F)F)c3)n[nH]2)cc1 (stereo not drawn) | 15 | 9
O=C(Nc1ccnn1C1CCN(C(=O)Cc2cccnc2)CC1)C1CCCC1 | -1 | -2
CN(C)c1ccc(NC(=O)c2ccco2)cc1CN(Cc1ccc(F)cc1)S(=O)(=O)c1ccc(F)cc1 | 24 | 20
COc1cccc(C(=O)Oc2coc(CSc3nc(C)cs3)cc2=O)c1OC | -10 | -7
CCCc1nnc(NC(=O)C2CCN(S(=O)(=O)c3c(Cl)cccc3Cl)CC2)s1 | 5 | 3
CCC1c2ccsc2CCN1C(=O)c1nn(-c2ccccc2F)c(C)cc1=O (stereo not drawn) | 8 | 6
Cc1ccc(CN2CCC(OCc3cccnc3)CC2)o1 | 14 | 7
CC1CCN(C(=O)CCNC(=O)c2cn(CC3CCCNC3)nn2)CC1 (stereo not drawn) | 7 | -1
N#CC(c1ccc(Cl)cc1Cl)c1cnnc2ccccc12 (stereo not drawn) | -8 | -9
O=C(CCC1CCN(C(=O)c2ccc3ccccc3c2)CC1)NCc1cccnc1 | 0 | -5
CCC1(CNC(=O)C2CCCCN2Cc2cccnc2)CCC1 (stereo not drawn) | -2 | -3
CC1=C[C@@H](CNS(=O)(=O)Cc2ccccc2)[C@H](C(C)C)C[C@H]1CC(=O)O | -7 | -8
C/C(=C\c1ccco1)CN1CCCN(C(=O)C2CCC2)CC1 | 12 | 9
Cc1ccc2nc(NCc3ccccc3)c(C=Nc3cccc(Cl)c3)c(=O)n2c1 | -5 | -7
N#Cc1ccc(C2N=C(c3ccccc3)NO2)cc1 (stereo not drawn) | 0 | -1
O=C(Cc1ccsc1)Nc1cc(S(=O)(=O)N2CCCCC2)ccc1N1CCOCC1 | 2 | 4
CC(C)(C)c1nc2ccc([N+](=O)[O-])cc2[nH]1 | 1 | -2
Cc1cc(N2CC[C@@H](c3ccc4c(c3)OCO4)[C@H](O)C2)nc2cc(F)ccc12 | 10 | 5
COCCn1c(=O)c2c(nc3n(-c4ccc(OC)cc4)c(C)cn23)n(C)c1=O | 15 | 6
